VACV Venus inh = qHTS for Stage-Specific Inhibitors of Vaccinia Orthopoxvirus: Venus Reporter Primary qHTS. Vaccinia virus Venus reporter expression, fluorescence. Potency, µM (series often up to 36.5 µM), without a hit: at the top dose activity change, negative = inhibition, most hits filed as inhibitors. 330,000 compounds, 0.46% hits; active means well fitted inhibition curve with a large enough effect; inconclusive means small, poorly fitted or top-dose-only effect; inactive means no such curve, though single readings can be large or run the other way; tested in A549 cells; further: nearly all actives have a fitted effect of over 30% in size; inactives centre near -10
Vaccinia mCherry = qHTS for Stage-Specific Inhibitors of Vaccinia Orthopoxvirus: mCherry Reporter Primary qHTS | Vaccinia virus mCherry reporter infection, fluorescence; about a quarter of the inactives have no number | Potency, µM (titrated, usually from 36.5 µM), for inactives: at the highest dose activity change, negative = inhibition, most hits filed as inhibitors | 310,000 compounds, 0.63% hits | AID 720579, 2013; active = well fitted inhibition curve with a large enough effect; inconclusive = small, poorly fitted or top-dose-only effect; inactive = no such curve, though single readings can be large or run the other way; tested in A549 cells; further: nearly all actives have a fitted effect of over 35% in size; inactives centre near -10
Starred values were filed as active, the others as inactive; i = inactive; ? = inconclusive; · = no result given; [ ] = another dose, or the depositor's remark. On the % scale 0 is the no-effect control and ±100 the full control effect; potency means the concentration at half of the fitted maximal effect.

SMILES | VACV Venus inh | Vaccinia mCherry
O=C1OC(Cc2ccccn2)C(O)=C1C1=NCCCCN1 (stereo not drawn) | 1% | -4%
CC1CCN(C(=O)c2ccc(S(=O)(=O)N(C)C)cc2)C(C)C1 (stereo not drawn) | -2% | -5%
CCCCC(Sc1ccc2nnc(-c3ccccn3)n2n1)C(=O)O (stereo not drawn) | -12% | 27%
S=C(Nc1cccc(Cl)c1Cl)Nn1cnnc1 | -8% | -1%
CN(Cc1ccccc1)C(=O)c1cc2c(s1)-c1ccc(Cl)cc1SC2 | -13% | 34%[activator]
Cc1ccc(COc2cccc3cc(-c4noc(-c5ccc(C)cc5)n4)c(=O)oc23)cc1 | -4% | -7%
CC1CCN(S(=O)C23CC4CC(CC(C4)C2)C3)CC1 (stereo not drawn) | -13% | -23%
CCOc1ccc(C(=O)N/N=C/c2cccc3cccnc23)cc1 | ? | ·
CC1(C(=O)NCCc2ccccc2)Cc2c(-c3cccc(C(N)=O)c3)ccnc2O1 (stereo not drawn) | -22% | ?
COCC(=O)N(C)[C@H]1C[C@H]2c3cc(N4CCN(C)CC4)ccc3CCN2C(=O)[C@H]1[C@H](C)O | 1% | i
COc1ccc(-c2cc(-c3ccccc3)nc3c2COc2ccc(Cl)cc2-3)cc1 | 5% | -5%
CCN(C[C@H]1N[C@@](C)(C(=O)OC)[C@H]2C(=O)N(C)C(=O)[C@@H]12)C(=O)c1ccc(F)cc1 | 8% | -15%
c1ccc(CN2CCC3(CCc4ccccc43)CC2)cc1 | -13% | -22%
CC(CNC(=O)CC[C@H]1O[C@@H](n2ccc(=O)[nH]c2=O)[C@H](O)[C@@H]1O)c1ccccc1 (stereo partly drawn) | 0% | 12%
Cc1ccc(S(=O)(=O)NC2CCCCC2)c2nsnc12 | -3% | -15%
O=C(CC1NCCNC1=O)Nc1ccc2c(c1)OCO2 (stereo not drawn) | -15% | -16%
O=C(CNC(=O)c1ccc(Br)cc1)N=Nc1c(O)[nH]c2ccc([N+](=O)[O-])cc12 | 0% | -8%
COc1ccc2c(c1)-c1nc(-n3ncc(C(=O)N(C)CCO)c3C3CC3)ncc1CC2 | -14% | -16%
Cc1cccc(NS(=O)(=O)c2ccc3c(c2)CC(C)N3C(=O)C2CCC2)c1C (stereo not drawn) | -9% | -24%
Cc1ccc(-n2c(=O)[nH]c3c(C(N)=O)nc(C(C)C)nc32)cc1 | -21% | ?
CCN(Cc1ccccc1)Cc1c(O)ccc2c(=O)c(-c3ccccc3OC)c(C(F)(F)F)oc12 | ? | -18%
Cc1sc2nc(C(C)C)nc(SCC(=O)N3CCN(C(=O)c4ccco4)CC3)c2c1C | -28% | -28%
N#C/C(=C(/O)CN1CCN(c2ccccc2F)CC1)c1nc(-c2ccc(Cl)cc2)cs1 | -20% | -27%
CCN1C(=O)[C@@H]2[C@H](C1=O)[C@@H]1C(=O)Nc3ccccc3C(=O)N1[C@@H]2c1cccc(Cl)c1 | -4% | i

Structures listed so far containing an NH in an aromatic ring (3):
SMILES | VACV Venus inh | Vaccinia mCherry
CC(CNC(=O)CC[C@H]1O[C@@H](n2ccc(=O)[nH]c2=O)[C@H](O)[C@@H]1O)c1ccccc1 (stereo partly drawn) | 0% | 12%
O=C(CNC(=O)c1ccc(Br)cc1)N=Nc1c(O)[nH]c2ccc([N+](=O)[O-])cc12 | 0% | -8%
Cc1ccc(-n2c(=O)[nH]c3c(C(N)=O)nc(C(C)C)nc32)cc1 | -21% | ?

6 entries picked at random from the list so far, as already listed:
SMILES | VACV Venus inh | Vaccinia mCherry
COc1ccc2c(c1)-c1nc(-n3ncc(C(=O)N(C)CCO)c3C3CC3)ncc1CC2 | -14% | -16%
O=C(CNC(=O)c1ccc(Br)cc1)N=Nc1c(O)[nH]c2ccc([N+](=O)[O-])cc12 | 0% | -8%
Cc1sc2nc(C(C)C)nc(SCC(=O)N3CCN(C(=O)c4ccco4)CC3)c2c1C | -28% | -28%
CCN1C(=O)[C@@H]2[C@H](C1=O)[C@@H]1C(=O)Nc3ccccc3C(=O)N1[C@@H]2c1cccc(Cl)c1 | -4% | i
O=C(CC1NCCNC1=O)Nc1ccc2c(c1)OCO2 (stereo not drawn) | -15% | -16%
Cc1ccc(S(=O)(=O)NC2CCCCC2)c2nsnc12 | -3% | -15%

The list goes on:
SMILES | VACV Venus inh | Vaccinia mCherry
CC1CCC(C(C)C)C(OC(=O)CSc2nccc(=O)[nH]2)C1 (stereo not drawn) | 1% | -8%
CCCCNc1ncnc2[nH]ncc12 | -12% | i
CN(C)S(=O)(=O)c1ccc(-n2cccc2)cc1 | -11% | -9%
COc1cc(NC(=O)Cn2c(=O)n(CC3CCCO3)c(=O)c3ccccc32)cc(OC)c1 (stereo not drawn) | -4% | -7%
CC(C)c1ccc(Nc2cc(C(=O)NCc3cccs3)c3ccccc3n2)cc1 | 1% | 6%
C[C@H]1CCC2[C@](C)(CO)[C@@H](O)CC[C@]2(C)[C@@]12CCC(CO)(CCO)O2 (stereo partly drawn) | -7% | -10%
CC(C)=Cc1oc2ccc([N+](=O)[O-])cc2c1N1CCOCC1 | 3% | i
Cc1ccccc1S(=O)(=O)N(C)C[C@H]1OCc2cn(nn2)CCCC(=O)N([C@@H](C)CO)C[C@@H]1C | -5% | 13%
Cc1cccc(S(=O)(=O)NC(=O)C2(C)CCN2C(=O)c2ccccc2)c1 (stereo not drawn) | -1% | 10%
Cc1cc(C[n+]2ccccc2)c2nsnc2c1 | ? | -18%
CCOC(=O)Cn1c2ccc(F)cc2c2nc(C)sc21 | -2% | -17%
CC(C)N1CC(O)=C(c2nc3ccccc3[nH]2)C1=N | -9% | -7%
CCN(CCCNC(=O)CNC(=O)c1nn(-c2ccc(OC)cc2)c(=O)c2ccccc12)c1cccc(C)c1 | -9% | -12%
Cc1ccc(-c2nc(CN3CCCCC3c3cccc(F)c3)c(C)o2)o1 (stereo not drawn) | 4% | 1%
Cc1ccc(C(=O)Cn2cncn2)cc1 | -9% | -10%
Nc1nnc(N)c2ccccc12 | -6% | -6%
COc1ccc(-n2c(SCC(=O)Nc3ccccc3OC)nc(O)c(Cc3ccccc3)c2=O)cc1 | ? | -4%
Cc1cccc(Cn2c(N3CCN(C)CC3)nc3c2c(=O)[nH]c(=O)n3C)c1 | -13% | -6%
CCC1(c2ccccc2)NC(=O)N(CC(=O)Nc2ccc3c(c2)CCC3)C1=O (stereo not drawn) | -21% | ?
Fc1ccc(-c2nn(-c3ccccc3Cl)c3c2cnc2ccccc23)cc1 | -1% | -11%
COc1ccc(CCNC(=O)CN2CCN(c3ccccc3Cl)CC2)cc1 | -22% | 0%
Cc1nnc(SCC(=O)NCc2ccc(N(C)C)cc2)c2nn(-c3ccccc3)c(C)c12 | -4% | 0%
COC(=O)c1sccc1S(=O)(=O)N(CC(=O)Nc1cc(C)cc(C)c1)c1ccc(Cl)cc1 | -17% | -5%
COc1ccc(C(=O)O/N=C(\N)c2ccncc2)cc1OC | -6% | -15%
O=C1CSC2(C(=O)N(Cc3ccccc3)c3ccccc32)N1c1cccc(F)c1 (stereo not drawn) | 2% | -9%
C[C@@H]1CN([C@H](C)CO)C(=O)CCCn2nncc2CO[C@@H]1CN(C)C(=O)C1CCCCC1 | -3% | -2%
Cc1cc(C)c(S(=O)(=O)c2ccccc2C)c(Oc2ccccc2)n1 | -6% | -17%
O=c1c2ccccc2oc2c1ccc1ccccc12 | ? | ?
CCN(CC)C(=O)C1=C(C)NC(=S)NC1c1ccc(C)s1 (stereo not drawn) | -7% | -6%
Cc1ccccc1C(=O)N1CCC(C(=O)NC2CCCCCC2)CC1 | -5% | i
CN(C)Cc1c(C(=O)N/N=C/c2ccc(OCc3c(F)cccc3Cl)cc2)nnn1-c1nonc1N | -15% | -19%
Cc1ccc(C(=O)NCC(=O)NCC(=O)OCc2ccc(Oc3ccc([N+](=O)[O-])cc3)cc2)cc1 | -24% | i
CCOC(=O)c1c(S(=O)(=O)NCC(=O)N2CCN(c3ccccc3OC)CC2)c(C)n(C)c1C | -4% | -10%
CC(=O)N(C)c1ccc(OCC(O)CN(Cc2ccco2)S(=O)(=O)c2ccc(C)cc2)cc1 (stereo not drawn) | -28% | -29%
COc1cc(Cl)c(C)cc1NC(=O)CCN1C(=O)NC(C)(C)C1=O | -4% | -10%
C=CC(=O)N1CCCC(Nc2nc(Nc3ccc(N(C)C(=O)CC)cc3C)nc3nc[nH]c23)C1 (stereo not drawn) | -22% | ?
Cc1cc2nn(-c3ccccc3)nc2cc1NC(=O)Cc1ccc(Cl)cc1 | -4% | i
Cc1ccc(CNC(=O)c2cccc3c2C(=O)c2ccc(N4CCOCC4)cc2S3(=O)=O)cc1 | -9% | i
CC(=O)c1ccc(-c2cnc3c(NC=O)cc(-c4cccc(NS(C)(=O)=O)c4)cn23)cc1 | 11µM* | 11µM*
C=CCN1C(=O)C(CC(=O)O)SC1=Nc1cccc([N+](=O)[O-])c1 (stereo not drawn) | -6% | -18%
COc1cc(C2c3c(oc4ccccc4c3=O)C(=O)N2c2nnc(C(C)C)s2)cc(OC)c1OC (stereo not drawn) | -3% | -7%
COc1ccc(C(=O)CSc2nc(=O)n3ccc(C)cc3n2)cc1 | -11% | i
O=S(=O)(c1cc(Cl)ccc1Cl)N1CCN(c2ccccn2)CC1 | 1% | 0%
CC1CCN(S(=O)(=O)c2ccc3c(c2)N(CC(=O)NCCN(C)C)C(=O)CS3)CC1 | -1% | -12%
O=C(CN1C2=NCCCN2c2ccccc21)c1ccc2c(c1)OCO2 | -23% | ?
Cc1ccccc1CNC(=O)Nc1ccc(Cl)cc1 | -16% | i
COc1ccc(CCCOC(Cn2ccnc2)c2ccc(OC)cc2)cc1 (stereo not drawn) | -10%[60.7 µM] | -20%[60.7 µM]
COc1cccc(CNC(=O)CCC2CCCN(C(=O)CCC(F)(F)F)C2)c1 (stereo not drawn) | 2% | -7%
CCn1c(=O)cc(SCC(=O)N2CCOCC2)c2ccccc21 | -7% | -10%
COc1ccc(CCN(C)c2ccc(S(=O)(=O)N3CCCC3)cc2[N+](=O)[O-])cc1OC | -23% | -1%
CCOc1ccc(NC(=O)Cn2c(=O)n(CCc3ccccc3)c(=O)c3c4c(sc32)CCCC4)cc1 | -10% | -8%
COc1ccccc1CNC(=O)CSc1ccc(-c2sc(-c3ccccc3)nc2C)nn1 | -24% | -11%
CCCCN(C)c1nc2c(S(=O)(=O)c3ccc(CC)cc3)nnn2c2ccc(Cl)cc12 | -11% | i
COc1cc2c(cc1OC)CN(S(C)(=O)=O)CC2 | -6% | 8%
C[C@@H](C(=O)NCCc1ccccc1)N1C(=O)N2CCc3c([nH]c4ccccc34)[C@@]2(C)C1=O | -8% | -11%
COC(=O)N/N=C/c1ccccc1Cl | -5% | i
CCOc1ccc(CNC(=O)C2CCN(C(=O)N3CC(CC)Oc4ccccc43)CC2)cc1 (stereo not drawn) | -15% | -1%
Cc1nc(N2CCN(c3ccccn3)CC2)c2c(C)c(C(=O)N3CCN(c4cccc(Cl)c4)CC3)sc2n1 | -8% | -10%
O=C(NC1(N2CCOCC2)CC1)c1ccc(Cl)cc1 | 1% | i
CCOCCc1nn2c(=O)cc(COC(=O)c3ccccc3OC)nc2s1 | -5% | -12%

Compound profiles, from the list above. Order of screens: VACV Venus inh, Vaccinia mCherry
COC(=O)N/N=C/c1ccccc1Cl in the list: -5%, i
COc1ccccc1CNC(=O)CSc1ccc(-c2sc(-c3ccccc3)nc2C)nn1 in the list: -24%, -11%
CCCCN(C)c1nc2c(S(=O)(=O)c3ccc(CC)cc3)nnn2c2ccc(Cl)cc12 in the list: -11%, i
C[C@@H](C(=O)NCCc1ccccc1)N1C(=O)N2CCc3c([nH]c4ccccc34)[C@@]2(C)C1=O in the list: -8%, -11%
O=C(NC1(N2CCOCC2)CC1)c1ccc(Cl)cc1 in the list: 1%, i

(listing goes on)
SMILES | VACV Venus inh | Vaccinia mCherry
Cc1ccc2c(c1)CCCN2CC(=O)N(C)c1c(N)n(Cc2ccccc2)c(=O)[nH]c1=O | -3% | -15%
COc1ccc(NC(=O)Cn2c(=O)n(Cc3ccccc3Cl)c(=O)c3cc(OC)c(OC)cc32)cc1OC | -12% | -13%
O=C(NCCCN1CCOCC1)c1cccc(S(=O)(=O)Nc2cc(Cl)ccc2Cl)c1 | -9% | -6%
CC[C@H](C)[C@@H](N)C(=O)NC[C@H]1O[C@@H](n2cnc3c(=O)[nH]c(N)nc32)[C@H](O)[C@@H]1O | -6% | i
CCC(C)Sc1nnc(-c2c[nH]c3ccccc23)n1CCOC (stereo not drawn) | -11% | -17%
O=C(NCc1ccccc1)C(c1ccccc1)n1c(=O)c(-c2ccco2)nc2ccccc21 (stereo not drawn) | -5% | -10%
O=C(CCn1c(=S)[nH]c2cc3c(cc2c1=O)OCO3)NCc1ccc(Cl)cc1 | -12% | i
O=S(=O)(c1ccc2ncccc2c1)N1CCN(c2nc(-c3cccs3)nc3ccccc23)CC1 | -18% | -1%
Cc1cc(NC(=O)C(C)C)ncc1NC(=O)CCc1ccccc1 | -2% | -18%
O=C(Cn1cc[n+](CC(=O)c2ccccc2)c1)c1ccccc1 | -4% | -3%
O=C(NCC1CCCO1)C(=O)N/N=C\c1ccc2c(c1)OCO2 (stereo not drawn) | -24% | -16%
CSc1ccc(/C=C2/C(=N)N3N=C(CC(=O)N4CCCC4)SC3=NC2=O)cc1 | -5% | -21%
CCCCOC(=O)n1c(=S)oc2cc(Cl)ccc21 | -18% | -18%
O=C(NCC(c1ccco1)N1CCc2ccccc21)C(=O)Nc1ccccc1 (stereo not drawn) | -13% | ?
